UCH37 inh – human UCH37 deubiquitinating enzyme inhibition | Q9Y5K5 | purified proteasome/UCH37, Ub-AMC cleavage fluorescence | inhibition, % (no concentration beside the values) | 330,000 compounds, 0.33% hits;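 active means mean of two replicates above 20%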;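 further: 0% = compound-free wells with enzyme and 100% = wells lacking proteasome; stock transfer was 100 nL into about 20 µL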
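Material: Human UCH37 enzyme supplied as purified proteasome complex | Schedule: 30 min compound-proteasome preincubation then 25 min substrate reaction, room temperature | Detection: AMC fluorescence from Ub-AMC cleavage, excitation 355 nm, emission 460 nm | Benchmarks: Wells without proteasome as full block, compound-free enzyme plus substrate as uninhibited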
HNF4A DNA FP – change in binding of human HNF4 alpha to DNA; HNF4a-FITC DNA binding, fluorescence polarization, 1 h; activity change, % at 10 µM; 360,000 compounds, 0.3% hits; in the data active means activity change above about 30%, passing the limit was not always enough;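 further: controls were the assay level and a saturating level of protein; the project sought stronger binding though the title names inhibitors; some compounds called inactive have numbers as strong as hits; positive values seem to mean higher polarization but the record does not say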
Beta2AR agonist – activates human beta-2 adrenergic receptor causing internalization; P07550; Am2.2-beta2AR cells, FAP receptor internalization, flow cytometry; reference of the scale not given here; response, % (test concentration not listed); 340,000 compounds, 0.43% hits; AID 504454;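 active means response above a set limit, near 3 SD of response in nonfluorescent compounds, cut at about 42% in these data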;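 further: stock transfer was 100 nL into about 11 µL; a reference agonist was the positive control; negative values mostly stem from fluorescent compounds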
Target sequence (P07550 whole entry, looked up): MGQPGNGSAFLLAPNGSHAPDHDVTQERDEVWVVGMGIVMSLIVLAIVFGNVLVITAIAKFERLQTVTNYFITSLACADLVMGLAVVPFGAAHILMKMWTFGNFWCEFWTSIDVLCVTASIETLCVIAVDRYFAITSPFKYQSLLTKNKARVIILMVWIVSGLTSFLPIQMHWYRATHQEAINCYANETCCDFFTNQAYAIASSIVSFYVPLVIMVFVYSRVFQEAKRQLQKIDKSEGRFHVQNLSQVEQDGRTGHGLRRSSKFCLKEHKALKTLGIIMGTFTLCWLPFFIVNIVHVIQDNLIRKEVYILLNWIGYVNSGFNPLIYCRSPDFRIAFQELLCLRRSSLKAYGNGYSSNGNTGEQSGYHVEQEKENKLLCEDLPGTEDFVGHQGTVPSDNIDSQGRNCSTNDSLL
E coli growth – inhibitors of Escherichia coli growth; OD600, 23 h; active compounds read low; OD600 absorbance (concentration not given with the values); 330,000 compounds, 0.21% hits; AID 1053175;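 active means OD600 absorbance below the run mean of sample wells minus 3.6 SD, in any replicate, cut at about 0.56 in these data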;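 further: stock transfer was 300 nL into about 60 µL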
ALR inh – blocks human ALR sulfhydryl oxidase activity; inhibition, % (test concentration not listed); purified ALR, DTT oxidation, H2O2 HRP-luminol luminescence; 290,000 compounds, 3.8% hits; P55789;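 active means mean and each replicate at 75% or more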;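 further: stock transfer was 7.5 nL into about 7.5 µL; 0% = neutral wells and 100% = wells with inactivated enzyme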
Target sequence (P55789 whole entry, looked up): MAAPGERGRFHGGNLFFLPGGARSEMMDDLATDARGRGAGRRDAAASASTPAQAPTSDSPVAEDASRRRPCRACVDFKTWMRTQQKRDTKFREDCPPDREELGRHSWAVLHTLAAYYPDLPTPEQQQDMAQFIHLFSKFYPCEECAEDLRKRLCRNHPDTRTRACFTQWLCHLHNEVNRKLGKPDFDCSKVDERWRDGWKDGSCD
LANA-H2A inh – blocks KSHV LANA binding to histone H2A/H2B; Q9QR71; cell-free LANA-H2A/H2B peptide, fluorescence polarization; inhibition, % (concentration not given with the values); 320,000 compounds, 0.6% hits; AID 2629; in the data active means inhibition mostly above about 10%, no sharp cut-off; inactive means mostly below about 6.7%;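 further: stock transfer was 7.5 nL into about 10 µL; 0% = median of vehicle wells and 100% = median of positive control wells; one replicate is shown; the record names a cut of 25% in any replicate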
FGF22 binding – FGF22 (human) thermal shift binding. AID 651658. 340,000 compounds, 1.5% hits. Q9HCT0. calls only at 9.99 µM. recombinant FGF22 thermal shift, SYPRO orange fluorescence; percent of sucrose octasulfate shift, DMSO zero;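 active means melting point raised past a set limit in the mean and every replicate; three in four hits are not shown here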
Target sequence (Q9HCT0 whole entry, looked up): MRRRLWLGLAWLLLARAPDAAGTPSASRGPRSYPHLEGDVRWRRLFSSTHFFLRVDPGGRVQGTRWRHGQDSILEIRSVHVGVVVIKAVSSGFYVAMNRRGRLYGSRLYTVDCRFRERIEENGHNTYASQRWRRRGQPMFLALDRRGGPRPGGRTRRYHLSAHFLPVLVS
An asterisk follows results filed as active; i = inactive; . = no result given.

UCH37 inh	HNF4A DNA FP	Beta2AR agonist	E coli growth	ALR inh	LANA-H2A inh	FGF22 binding	Compound
.	-0.1	-10	.	-52	-3.1	i	CN(C)/C=N/c1nc2ccc3c(c2s1)CCCC3
0.7	6.3	11	0.61	-1	0.8	i	COc1cccc(NC(=O)C2CCN(C(=O)[C@@H]3Cc4ccccc4CN3C(=O)OC(C)(C)C)CC2)c1
0.6	-1.7	-3	0.67	34	-6.1	.	COc1cc(CNn2cn[nH]c2=S)cc(Cl)c1OCc1ccccc1
21*	3.1	-2	0.7	-11	-2.6	i	Cc1ccc[n+](/C(=C\C(=C=[N-])C#N)C(=O)c2ccc(Cl)cc2)c1
1.9	-2.7	-9	0.71	-7	-0.2	i	CCn1c(SCC(=O)Nc2cc(C)on2)nc2c(c1=O)SCC2
.	-40	-17	0.72	-52	9.1	.	Cn1c(-c2ccc(C=O)s2)nc2c3ccccc3c3ccccc3c21
.	9.7	4	.	4	-0.2	.	Cc1ccccc1-n1c(=O)/c(=C\c2ccco2)s/c1=C(/C#N)C(=O)Nc1ccccc1
1.3	2.2	-5	0.62	-1	1.9	.	O=C(NCc1cccs1)c1ccc(N2CCCCC2)nc1
1.5	5.3	-2	0.63	98*	-3.3	i	COc1ccccc1CNc1ncc(-c2ccc(F)cc2)n1C
.	-2.2	5	.	1	-0.8	i	CCOc1ccccc1NC(=O)CN1CCN(C(=O)C2CCCO2)CC1 (centres undefined)

Some of these compounds in order of their number in ALR inh, low to high:
| Structure | UCH37 inh | HNF4A DNA FP | Beta2AR agonist | E coli growth | ALR inh | LANA-H2A inh | FGF22 binding |
| --- | --- | --- | --- | --- | --- | --- | --- |
| Cc1ccc[n+](/C(=C\C(=C=[N-])C#N)C(=O)c2ccc(Cl)cc2)c1 | 21* | 3.1 | -2 | 0.7 | -11 | -2.6 | i |
| CCn1c(SCC(=O)Nc2cc(C)on2)nc2c(c1=O)SCC2 | 1.9 | -2.7 | -9 | 0.71 | -7 | -0.2 | i |
| COc1cccc(NC(=O)C2CCN(C(=O)[C@@H]3Cc4ccccc4CN3C(=O)OC(C)(C)C)CC2)c1 | 0.7 | 6.3 | 11 | 0.61 | -1 | 0.8 | i |

New compounds follow:
UCH37 inh	HNF4A DNA FP	Beta2AR agonist	E coli growth	ALR inh	LANA-H2A inh	FGF22 binding	Compound
8.3	.	.	0.66	-16	3.5	.	Cc1ccc2occ(CN3CCN(Cc4ccccc4)CC3)c(=O)c2c1
7.4	2.0	5	0.67	-2	-3.7	i	O=C(Cn1c2[n+](c3ccc(C(F)(F)F)cc31)CCCCC2)Nc1ccccc1
-0.1	-4.6	5	0.7	98*	5.8	.	O=C(O)/C=C/C(=O)Nc1ccc(C2(c3ccc(NC(=O)/C=C/C(=O)O)cc3)c3ccccc3-c3ccccc32)cc1
.	-1.1	13	.	.	-4.0	i	C(=N\n1c2ccccc2c2ccccc21)/c1ccccc1
-0.7	1.4	-3	0.7	-2	3.6	.	Cc1ccccc1OCCN1C(=O)C(=O)c2cccc(C)c21
4.5	0.8	0	0.69	-29	-2.7	.	CSc1ncccc1C(=O)OCC(=O)Nc1ccc(S(=O)(=O)N2CCCC2)cc1
1.6	4.2	-1	0.72	-6	0.2	i	Cc1nc(C(F)(F)F)c(C(=O)N=CN(C)C)s1
-8.0	2.5	4	0.69	-3	2.4	i	CCCCc1nc2cc(C(=O)N3CCN(c4cnccn4)CC3)ccc2o1
5.1	-1.6	8	0.69	1	5.4	.	O=C(Cc1ccccc1F)NCC(c1ccco1)N1CCCCC1 (centres undefined)
9.8	-3.7	21	0.7	62	1.5	i	O=c1cc(-c2ccccc2)[nH]n1-c1ccc([N+](=O)[O-])cc1
-2.2	6.8	-2	0.7	-11	-9.8	i	COc1ccc(-n2ncc(C(C)NS(=O)(=O)c3cc(F)ccc3C)c2C)cc1 (centres undefined)
-134	-0.5	-1	0.71	.	1.3	.	CC(=O)Nc1ccc(Nc2cc(C)nc3c(-c4ccccc4)cnn23)cc1
7.1	0.6	-2	0.63	2	-0.1	i	COc1ccc(C(=O)NNC(=O)C(=O)NC2CCCCC2)cc1
9.8	-2.1	9	0.69	36	1.4	i	Cc1ccc(/C=C2\SC(=S)N(c3c(C)n(C)n(-c4ccccc4)c3=O)C2=O)cc1
3.0	2.1	-4	0.7	.	.	i	C[C@@H]1CN([C@@H](C)CO)C(=O)c2cc(NS(C)(=O)=O)ccc2O[C@@H]1CN(C)S(=O)(=O)c1ccccc1
3.2	-1.1	-2	0.71	0	-1.4	.	COCCNc1nc(SCc2ccccc2)nc2sc3c(c12)CCC3
-0.1	-3.0	0	0.73	-10	1.9	i	CCN(CC)S(=O)(=O)c1ccc(C(=O)NC(C)(C)C)cc1
2.0	1.3	0	0.66	-7	0.5	i	Cc1ccc(C)c(NC(=O)CN(C)S(=O)(=O)c2cccc3cccnc23)c1
0.3	-3.4	11	0.71	19	-1.2	.	Cc1ccc(NC(=O)CSc2nnc(Cn3cnc4ccccc43)o2)c(C)c1
0.9	-1.6	8	0.66	-3	3.4	i	NC(=O)CN1C(=O)NC2(CCOc3ccccc32)C1=O (centres undefined)
1.0	-0.1	1	0.7	-7	-2.5	i	O=C(NC1CCC1)C1CCC(=O)N(Cc2ccccc2F)C1 (centres undefined)
-110	-2.6	2	0.73	0	-2.7	i	COc1ccc(-c2nc3ccccn3c2NC2CCCCC2)cc1SC1CCCCC1
-45	-2.6	2	0.71	-3	-3.7	i	CCC1CCCCN1CCCNC(=O)c1c(O)nc2ccccn2c1=O (centres undefined)
0.0	-1.0	-2	0.72	-8	2.7	.	Cc1cccc(NC(=O)c2cc(S(=O)(=O)c3ccccc3)ccc2Cl)c1
.	0.4	-7	.	-14	-1.4	i	CSc1nncc(/C(C)=N/O)n1
-2.1	-2.2	0	0.59	7	-4.4	i	CN(C)C(CNC(=O)c1ccccc1OCc1ccc(Cl)cc1)c1ccco1 (centres undefined)
0.0	0.5	-5	0.69	-14	0.3	.	Cc1ccc(C(=O)NCCN(C)C)c(C)c1
4.0	-5.7	2	0.7	-10	4.1	.	Cc1cc(-c2nnc(SCc3cccnc3)o2)no1
7.5	3.9	-2	0.7	-1	1.0	i	Cc1cc(C)c2c(CC(=O)NC3CCS(=O)(=O)C3)coc2c1 (centres undefined)
2.7	0.4	-2	0.68	-12	0.2	.	COc1ccc(CNC(=O)CN2CCC(C(=O)c3ccc(OC)cc3)CC2)cc1

Quoted at random: 2 compounds from above.
UCH37 inh	HNF4A DNA FP	Beta2AR agonist	E coli growth	ALR inh	LANA-H2A inh	FGF22 binding	Compound
-2.1	-2.2	0	0.59	7	-4.4	i	CN(C)C(CNC(=O)c1ccccc1OCc1ccc(Cl)cc1)c1ccco1 (centres undefined)
-45	-2.6	2	0.71	-3	-3.7	i	CCC1CCCCN1CCCNC(=O)c1c(O)nc2ccccn2c1=O (centres undefined)

(cont.)
UCH37 inh	HNF4A DNA FP	Beta2AR agonist	E coli growth	ALR inh	LANA-H2A inh	FGF22 binding	Compound
-3.5	-0.7	1	0.61	1	-1.0	i	CCOC(=O)C1=NN(c2ccc(Cl)cc2)C(=O)C1
1.0	1.2	4	0.63	.	3.8	i	O=C(CN1C(=O)C2CC=CCC2C1=O)Nc1ccc(S(=O)(=O)Nc2ncccn2)cc1 (centres undefined)
4.6	-0.3	5	0.71	.	2.6	.	COc1ccc(/C=C2/SC(=S)N(CCCC(=O)Nc3ccccc3C(=O)O)C2=O)cc1
1.3	-3.7	2	0.68	-4	0.1	i	COc1cccc(C2CC(=O)Nc3n[nH]c(-c4ccccc4)c32)c1OC (centres undefined)
-44	-1.6	-2	0.71	99*	1.7	.	Cc1ccc(C)c(-c2nc3cc(N)ccc3o2)c1
-3.2	1.4	-1	0.76	-4	2.5	i	CCOC(=O)N1CC=C2C(C#N)=C(N)C(C#N)(C#N)[C@H](c3cccs3)[C@H]2C1
-0.6	2.3	3	0.64	-8	2.1	i	COC(=O)c1ccc(COc2ccc(Cl)cc2)o1
1.0	2.5	0	0.62	.	-10	i	Cc1ccc(-c2csc(NC(=O)c3c(C)noc3C)n2)cc1
0.6	-0.6	3	0.64	-1	-0.1	i	Cc1ccc(NC(=O)Cn2nnc(C(=O)Nc3ccc(F)c(Cl)c3)c2N)cc1
5.8	2.7	14	0.64	-1	4.4	i	CCOC(=O)c1cc(-c2csc(COc3ccc(Cl)cc3)n2)on1
0.8	-0.8	2	0.7	1	6.2	i	COc1ccc(CN2C(=NC(=O)c3ccccc3)SC3CS(=O)(=O)CC32)cc1 (centres undefined)
3.0	3.1	-6	0.64	-8	0.3	.	O=C(C[n+]1cccc(CNC(=O)c2ccc(OC(F)F)cc2)c1)Nc1cc(C(F)(F)F)ccc1Cl
7.6	2.8	7	0.67	-8	1.3	i	O=C(COC(=O)c1cccc(N2C(=O)C3CC=CCC3C2=O)c1)c1ccccc1 (centres undefined)
-1.3	-1.0	2	0.7	-1	-4.1	i	Cc1ccc(C(c2nnnn2C2CCCC2)N2c3ccccc3CC2C)cc1 (centres undefined)
-0.5	-1.1	12	0.65	.	6.0	.	Cc1ccccc1NC1=CC(=O)CC(C)(C)C1
0.2	-0.8	3	0.7	2	-4.8	i	O=C(O)/C(=C\c1ccccc1Cl)c1ccc(S(=O)(=O)N2CCCCC2)s1
8.7	4.0	-9	0.73	-6	4.7	i	CC(Nc1cc(N2CCN(S(=O)(=O)N(C)C)CC2)ccc1[N+](=O)[O-])c1ccccc1 (centres undefined)
3.4	-4.1	2	0.68	3	-2.4	.	CCOc1cc(C)c(C(C)C)cc1S(=O)(=O)N1CC(C)OC(C)C1 (centres undefined)
4.3	4.7	-1	0.078*	.	.	i	CCC[C@@H](CN1CCC[C@H]1CN1C(N)=NC[C@H]1CC(C)C)N1C[C@@H]([C@H](C)CC)N(CCc2ccc(Cl)c(Cl)c2)C1=N
1.6	-4.1	-7	0.66	-1	1.0	i	CCOC(=O)N1CCN(C(=O)c2cccc(N3C(=O)NC4CC3(C)Oc3ccccc34)c2)CC1 (centres undefined)
-92	1.2	2	0.72	-3	-6.0	.	COc1ccc(/C=C/c2nnc(NC(=O)COc3ccc(C)cc3)s2)cc1
5.4	3.1	-13	0.73	41	2.5	i	COc1ccc(N2CCN(C(=O)COC(=O)CNC(=O)c3ccccc3)CC2)cc1
4.0	2.6	2	0.67	-10	-4.6	i	O=[N+]([O-])c1cccc(-c2csc(CS(=O)(=O)Cc3ccco3)n2)c1
0.5	3.8	4	0.71	-6	2.4	i	Cc1noc(C)c1C(=O)NCCc1ccc(S(N)(=O)=O)cc1
1.6	3.5	-5	0.67	2	-2.6	i	CCOc1ccc(NC(=O)c2nn(C)c(C(=O)Nc3ccc(OCC)cc3)c2[N+](=O)[O-])cc1
-196	-1.1	-5	0.71	-8	0.5	.	COCc1cc(C)nc(NC2CCCCC2)c1C#N
-0.2	-0.1	6	0.69	-5	-0.9	i	CCc1nnc(NC(=O)c2cc(S(=O)(=O)N3CCCCC3)ccc2C)s1
.	-0.3	-5	.	-4	2.2	i	COc1cccc2cc(C(=O)Nc3ccccc3C)/c(=N/NS(=O)(=O)c3ccccc3)oc12
0.9	6.1	-14	0.75	-7	1.5	i	NS(=O)(=O)c1ccc(NC(=O)COC(=O)c2cn(-c3ccccc3)nc2-c2ccccc2)cc1

Only part of the results is shown; rates above refer to the full screens.
